# Yeast UUG start = modulators of yeast start codon fidelity, primary screen, whole organism, S. cerevisiae, single point, plate reader. actives 0.13% (n = 350,000). activity score, % at 18.7 µM. AID 602363, 2012. S. cerevisiae UUG-firefly luciferase reporter, luminescence/redox ratio;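 active means replicate mean at a twofold rise or more, about +100% in these data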;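 further: firefly luciferase made from a UUG start codon reports start codon fidelity; reporter light over untreated wells divided by growth signal over untreated wells; some hits fall short of that in this replicate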
# eIF4H inh = human eIF4H binding inhibitors, primary screen, translation initiation inhibitor project, biochemical, uHTS, fluorescence polarization; Eukaryotic translation initiation factor 4H (Homo sapiens), Q15056; actives 0.94% (n = 290,000); AID 2012, 2009; eIF4H fluorescence polarization binding assay; inhibition, % at 35 µM;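 active means 50% or more with normal probe brightness, or confirmed in later tests; inconclusive means above 50% with abnormal brightness, or retests that disagree; inactive means below 50% or failed in later tests; about a fifth of its hits are not listed in these tables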;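 further: calls also rest on retests at 20 µM and on dose response follow-up; 0% = protein and probe with vehicle and 100% = probe without protein; strong numbers were not always called active; many hits fall short of the cut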
# MT1-MMP act inh = blockers of MT1-MMP proenzyme processing, primary screen, HT1080 RFP-PRO-GFP cells, GFP/RFP fluorescence; GFP/RFP ratio fluorescence, overnight; percent of plate control window, DMSO zero; actives 0.061% (n = 360,000); Matrix metalloproteinase-14 (Homo sapiens), P50281; GFP/RFP ratio change, % at 20 µM;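 active means GFP/RFP ratio change of at least 30% with cell ATP level not reduced by more than half and red fluorescence within 50% of control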; further: strong numbers were not always called active
#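 Compound: 20 µM single dose, 1% DMSO / System: HT1080 RFP-PRO-GFP cells / Controls: DMSO and RFP-L50D-GFP cell wells / Read-out basis: GFP/RFP fluorescence ratio / Schedule: overnight compound exposure at 37 °C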
# Rce1 inhib = yeast Rce1p protease inhibitors, primary screen, biochemical, fluorescence, cell-free homogeneous; calls only; CAAX prenyl protease 2 (Saccharomyces cerevisiae (strain ATCC 204508 / S288c)), Q03530; yeast membranes, quenched prenylated peptide cleavage fluorescence; actives 0.27% (n = 290,000);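 active means fall in fluorescence gain of 50% or more versus controls, with final raw signal at or below 3038400; inconclusive means same 50% fall but final raw signal above 3038400; inactive means fall in fluorescence gain under 50%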;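 further: plate controls were neutral control wells for no effect and wells lacking membranes for full effect; tested at 10 µM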
# Target sequence (Q03530 whole entry, looked up): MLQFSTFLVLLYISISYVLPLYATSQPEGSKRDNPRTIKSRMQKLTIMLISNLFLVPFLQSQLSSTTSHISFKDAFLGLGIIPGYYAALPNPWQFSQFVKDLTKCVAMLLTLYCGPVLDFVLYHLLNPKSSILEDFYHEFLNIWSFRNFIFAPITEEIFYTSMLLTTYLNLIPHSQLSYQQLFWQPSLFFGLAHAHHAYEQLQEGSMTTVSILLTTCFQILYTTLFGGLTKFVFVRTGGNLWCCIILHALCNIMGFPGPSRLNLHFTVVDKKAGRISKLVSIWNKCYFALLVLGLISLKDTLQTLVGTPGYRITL
# Env fusion inh = inhibitors of HIV-1 Env-driven cell-cell fusion, primary screen, HeLa-JRFL effector, CEM21 target cells, luciferase; inhibition, % at 12.3 µM; actives 1.1% (n = 360,000); AID 651610, 2012;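 active means mean replicate inhibition score of at least 50 and every replicate individually at or above 50; inconclusive means only one of the two criteria met; inactive means mean below 50 and not all replicates reaching 50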;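 further: 0% = plate neutral controls and 100% = maraviroc near 300 nM; one replicate is shown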
# CSC inhib = cancer stem cell viability inhibitors, primary screen, luminescence. cancer stem cell-like cells viability. inhibition, % at 7.5 µM. actives 1.1% (n = 300,000);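 active means mean at 75% or more and at least half the replicates too; inconclusive means mean and replicates disagree; tested in HMLE shEcad cells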;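 further: 0% = median of negative and 100% = median of positive control wells; the first replicate is given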
# PABP polyA inh = PABP poly(A) RNA binding inhibitors, primary screen, biochemical, fluorescence polarization, uHTS. inhibition, % at 35 µM. actives 1% (n = 290,000). AID 2014, 2009;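 active means 50% or more with normal probe brightness, or confirmed in later tests; inconclusive means above 50% with abnormal brightness, or retests that disagree; inactive means below 50% or failed in later tests; about a fifth of its hits are not listed in these tables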;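 further: calls also rest on retests at 20 µM and on dose response follow-up; controls were probe without protein and protein plus probe with vehicle; some compounds called inactive have numbers as strong as hits; many hits fall short of the cut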
# eIF4H inh retest = recorded beside eIF4H inh, whose call it bears; inhibition, %; compound at 20 µM; confirmation average;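 mean of two retest wells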
# PABP polyA inh retest = also measured in PABP polyA inh; calls as there; inhibition, %; compound at 20 µM; confirmation repeats;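 mean of two retest wells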
# MT1-MMP act inh RFP = second read-out of MT1-MMP act inh, no call of its own (marks repeat the call); RFP signal change, %; measured here: RFP expression control read;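 0 = vehicle wells; hits needed this value within 50% of zero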
# * marks the source's active call; other numbers are inactive results; i = inactive; ? = inconclusive; . = not tested or not shown. This is a random part of the collection; 2.9% or so of the library scored in one or more.
SMILES,Yeast UUG start,eIF4H inh,MT1-MMP act inh,MT1-MMP act inh RFP,Rce1 inhib,Env fusion inh,CSC inhib,PABP polyA inh,others
O=c1c2ccccc2nc(SCc2nnc(-c3ccccc3Br)o2)n1Cc1ccco1,-10.5,0.7,-5.0,-2.2,i,19.1,11.4,0.7,
CCOC(=O)c1cccc(P(=O)(C(C)(C)C)C(C)(C)C)c1,.,-9.1,-2.1,6.0,i,-1.9,10.5,-5.5,
CCN=c1scc(-c2ccco2)n1/N=C/c1ccc(OC)c(O)c1,-20.3,4.4,12.4,-1.3,i,.,31.2,7.8,
c1ccc(CC(Cc2ccccc2)c2ccccn2)cc1,-16.7,.,-2.1,4.1,.,4.8,.,.,
O=C(Nc1ccc2nccnc2c1)c1ccco1,.,-2.3,1.0,1.8,i,-3.7,7.4,-11.7,
COc1ccc(N(CC(=O)NCCSCc2cccc(Cl)c2)S(C)(=O)=O)cc1,3.2,-10.9,0.5,-2.2,i,-25.4,-4.7,9.3,
O=c1c2c(O)cc(O)cc2oc2ccc(O)c(O[C@@H]3O[C@H](CO)[C@@H](O)[C@H](O)[C@H]3O[C@H]3O[C@H](CO)[C@@H](O)[C@H](O)[C@H]3O)c12,-3.4,.,6.0,1.7,.,.,5.3,.,
Cc1ccc(N2C(=O)c3cccc4c(N)ccc(c34)C2=O)c2cccnc12,-2.0,?,-134.6,-1.1,i,-119.7,50.5,?,
CN(CCC1CCCCO1)C(=O)CCc1nnc(CCCCc2ccccc2)o1 (stereo not given),.,-5.3,-3.0,-0.8,i,2.0,-0.2,-12.9,
CCOc1ccc2nc(NC(=O)CN3CCC(n4nnc5cc(F)ccc54)CC3)sc2c1,-2.8,-3.6,3.5,-11.7,i,?,9.2,-8.5,
CCn1c(O)c(/C=C2\C=Nc3ccccc32)sc1=Nc1ccc(C)cc1,-6.7,-14.9,1.0,-2.6,i,.,5.7,-2.8,
CC(C)C(=O)Nc1cccc(C(=O)NCc2ccc3c(c2)OCO3)c1,-2.3,-6.9,0.0,0.5,i,.,-0.6,-1.6,
COc1ccccc1-c1sc2cc3c(cc2c1C#Cc1ccccn1)OCO3,1.9,.,-6.8,-2.3,.,5.2,31.7,.,
COc1ccc(S(=O)(=O)NCCc2cn3nc(C)c(C)nc3n2)cc1F,-0.7,9.1,-1.4,-3.5,i,4.0,17.9,4.4,
O=C(CCn1cnc2ccccc2c1=O)Nc1ccc(S(=O)(=O)N2CCCC2)cc1,2.3,-2.5,5.4,4.9,i,.,-4.6,-8.7,
CCc1ccc(CN2CCC(n3nccc3NC(=O)c3ccccc3)CC2)o1,3.7,-8.3,1.5,0.3,i,-7.6,16.6,-1.1,
Cc1cccc(CC(=O)Nc2ccc(C(=O)N3CCCCC3)cc2)c1,-6.8,-6.3,8.0,0.3,i,-13.9,-0.7,2.1,
CCc1cccc(C)c1NC(=O)COC(=O)c1cc([N+](=O)[O-])ccc1N1CCOCC1,.,.,2.1,-3.3,i,-5.5,.,.,
Cc1c(C(=O)O)sc(=S)n1-c1ccc(Cl)cc1,.,-10.7,1.8,3.6,i,-11.1,3.6,9.4,
OCCNc1nc2ccccc2n1-c1ccccc1,-8.8,-10.4,-0.5,3.1,i,-30.5,-6.3,-4.2,
CC(c1ccon1)N(C)C(=O)CCc1nnc(Cc2ccc(-c3ccccc3)cc2)o1 (stereo not given),-16.8,-10.6,0.9,-0.9,i,12.8,-10.5,-0.4,
CCN(CC)c1ccc(CNCc2cccs2)cc1,.,-3.2,0.3,0.5,i,3.9,-6.9,8.4,
COc1cccc(-c2cnc3c(NC(C)=O)cc(-c4ccc(S(C)(=O)=O)cc4)cn23)c1,5.5,.,-10.0,4.9,.,25.0,.,.,
Cc1cc(NC2CCCCC2)nc(-c2ccccc2O)n1,16.5,4.6,-8.4,-3.6,i,.,-1.8,19.5,
CSC1=NCCN1C(=O)Cc1ccc(-c2ccccc2)cc1,.,2.2,0.8,-6.8,i,-2.2,-7.8,-6.0,

# Other entries follow:
SMILES,Yeast UUG start,eIF4H inh,MT1-MMP act inh,MT1-MMP act inh RFP,Rce1 inhib,Env fusion inh,CSC inhib,PABP polyA inh,others
CC(C(=O)NCC1CCCO1)N(C(=O)c1snc(C(N)=O)c1N)c1ccccc1 (stereo not given),-8.6,2.6,1.2,-0.8,.,24.1,-0.8,-3.4,
CC(C(=O)Nc1ccc2c(c1)OCCO2)N(C)CC(=O)Nc1ccccc1Br (stereo not given),-11.8,.,1.4,2.9,.,15.2,.,.,
COc1ccc(CCN(C)C(=O)C(CCSC)NC(=O)c2ccco2)cc1OC (stereo not given),4.5,.,-1.6,3.1,.,-3.6,8.2,.,
CCN(CC)C(=O)Cn1cc(C(=O)C(=O)N2CCN(c3ccccc3)CC2)c2ccccc21,-13.4,2.5,-1.1,1.0,i,-1.9,0.8,4.3,
CCNc1nc(Oc2ccc(C(=O)OC)cc2)nc(N(C)C)n1,.,0.5,-3.1,-8.3,i,.,-9.1,-10.8,
CCOC(=O)CC1C(=O)NCCN1C(=O)c1ccc(Cl)cc1 (stereo not given),-2.1,-0.5,0.0,3.9,i,0.1,.,-4.5,
Cc1ccc(C(=O)CC2(O)C(=O)N(C)c3ccccc32)s1 (stereo not given),.,-1.5,-6.1,2.4,i,-16.7,-1.7,5.9,
O=C(NC1CCCN(Cc2ccc(Cl)cc2)C1)c1cccc(N2CCCC2=O)c1 (stereo not given),-9.6,-2.0,-2.4,-0.2,i,.,-8.5,-5.6,
Cc1onc(-c2ccccc2)c1C(=O)N1CCN(c2ccccc2)CC1,-25.0,-16.3,-5.1,-1.1,.,.,-1.4,-2.5,
CCOC(=O)CSc1nnnn1-c1cccc2ccccc12,-11.7,-8.2,-8.4,-0.2,i,.,-5.9,16.7,
CC(=O)c1cnc(SCC(=O)O)nc1C,-14.9,-2.4*,2.0,0.1,i,6.4,-7.9,54.3*,eIF4H inh retest=82.3*;PABP polyA inh retest=68.8*
CN(C)c1nc2n(c(=S)n1)CCS2,-14.1,12.2,-3.6,1.3,i,?,-11.4,-4.2,
COc1ccc(OC)c(-c2csc(NC(=O)c3ccc(OCC4CCCO4)cc3)n2)c1 (stereo not given),-15.5,6.6,4.9,-3.4,i,-0.4,12.0,1.7,
O=C(/C(N=Nc1cccc(C(F)(F)F)c1)=C(/O)c1cccs1)C(F)(F)F,.,-11.9,-4.7,-25.3,i,-2.0,139.6*,-2.4,
CCOc1ccc2nc3cc(NCc4ccc(OC)cc4)ccc3c(N)c2c1,-20.9,?,-144.3,-27.6,i,.,120.8*,?,
Cc1ccc2nc(-c3ccc(NC(=S)NC(=O)CC(C)C)cc3)sc2c1,-21.7,-6.9,8.0,3.4,i,-132.0,4.9,-11.8,
O=C(Nc1ccccc1)c1ccc2c(c1)OCCCO2,-40.6,-3.8,4.4,3.3,i,-57.8,-0.2,0.2,
COc1cc(NC(=O)CCN2CCN(c3ccccc3OC)CC2)cc(OC)c1,-7.3,.,3.6,-4.2,.,-0.2,.,.,
Cn1c2c(c(=O)n(C)c1=O)C(c1ccccc1OC(F)F)C1=C(CCCC1=O)N2 (stereo not given),-13.9,.,3.4,7.3,i,-32.6,-12.1,.,
COC(=O)c1cc(/C=C/c2ccccc2)[nH]n1,-2.6,85.7,-0.2,0.3,.,-27.1,-20.1,38.3,eIF4H inh retest=3.5;PABP polyA inh retest=5.3
COc1cccc(C(=O)NNC(=O)C2CCCO2)c1 (stereo not given),-14.3,-1.5,5.2,4.5,i,1.7,1.5,-1.9,
COc1ccc(C(=O)CSc2nnnn2C)c(OC)c1,.,-0.6,-1.2,-9.9,i,-11.0,-5.2,-16.3,
O=C(CCc1nc2ccccc2[nH]c1=O)OCC(=O)c1ccc(Cl)cc1,-11.7,-1.8,-0.8,1.5,i,.,11.5,-3.3,
CC(=O)Nc1ccccc1Nc1cc(C#N)c(C#N)cc1[N+](=O)[O-],-10.6,-12.9,10.2,2.4,i,-18.5,-5.9,-14.6,
O=C1CC(c2ccc(F)cc2)Cc2nc(N3CCOCC3)ncc21 (stereo not given),1.3,-7.6,3.2,0.7,i,.,7.2,9.3,

# (continued)
SMILES,Yeast UUG start,eIF4H inh,MT1-MMP act inh,MT1-MMP act inh RFP,Rce1 inhib,Env fusion inh,CSC inhib,PABP polyA inh,others
CCc1c(O)nc(SCC(=O)Nc2ccc(OC)cc2)n(C2CCCCC2)c1=O,-11.8,-1.0,5.7,3.8,i,-87.6,-2.9,6.9,
CCNc1nc(NC(C)C)nc(N2CC(=O)N(CC(=O)OCC)C2=N)n1,-19.9,-1.2,-1.3,-1.0,i,-17.6,-32.0,-10.8,
COc1cc(C#Cc2c(C=O)n(C)c3ccccc23)cc(OC)c1,-4.9,.,-6.9,-2.9,.,7.4,32.1,.,
Cc1ccc(N/C=C(/C#N)c2ccsc2)cc1C,-16.8,-5.6,-7.4,-4.8,i,.,22.6,-8.8,
COc1ccc(C(c2nnnn2Cc2cccs2)N2CCN(c3ccccc3F)CC2)cc1OC (stereo not given),12.7,-11.7,4.1,-1.0,i,.,20.7,22.2,
CN(CCCN1CCOCC1)C(=O)c1ccc2nc(Cc3cccc(Cl)c3)oc2c1,-4.9,6.7,1.5,-0.7,i,.,12.3,1.3,
C=CC[C@@H](CC(=O)N(CCO)Cc1ccccc1)C(=O)N[C@H](COC(=O)[C@@H](CC=C)Cc1ccc(F)cc1)Cc1c[nH]c2ccccc12,-1.8,.,-2.8,-12.7,.,-9.4,22.3,.,
CCNC(=O)CN1C(=O)NC2(CCCc3cc(OC)ccc32)C1=O (stereo not given),-12.9,-5.2,2.2,2.0,i,.,-4.1,3.0,
O=C(c1ccccc1)N1CCN(c2ccc([N+](=O)[O-])c(N3CCOCC3)c2)CC1,.,7.4,1.9,-1.4,.,12.9,-5.0,0.7,
O=C(CCCOc1ccccc1)Nc1nccs1,-15.9,-0.4,-1.0,-0.8,i,-90.2,-8.7,-2.5,
Cc1c(C)c(C)c(CN2CCCC2)c(C)c1C,.,-4.4,-2.3,-0.8,i,-6.0,45.6,-9.2,
Cc1sc2c(c1C)c(=O)nc1n2Cc2ccccc2-1,.,-1.6,.,.,i,.,.,11.0,
CCOC(=O)c1cnc2c(C)c(C)ccc2c1NCCN1CCOCC1,-19.7,-6.9,0.7,-1.2,i,1.3,.,4.6,
O=C(COC(=O)/C=C/c1cccc(C(F)(F)F)c1)NC(=O)NCc1ccco1,-11.2,.,0.4,1.9,.,.,27.0,.,
CCC(C(=O)OCC(=O)Nc1ccc(F)cc1)c1ccccc1 (stereo not given),-5.6,.,-3.3,4.2,.,7.4,0.0,.,
O=C(CN1C(=O)NC(Cc2c[nH]c3ccccc23)C1=O)NC1CCCCC1 (stereo not given),-17.6,.,1.1,2.2,.,4.4,.,.,
CC(C)CNC(=S)NNC(=O)c1ccccc1OC(F)F,.,-6.4,2.4,2.4,i,-14.5,-11.4,-3.4,

# Compound activity deposited in PubChem by several laboratories.
